miR-21 FLuc – raises the signal of a miR-21 reporter. HeLa miR-21 FLuc reporter, luciferase, 48 h. Potency, µM (titrated, usually from 38.3 µM), inactives show top-dose reporter change, positive = more light. 340,000 tested, under 10 active; active = well fitted rising curve with a large enough effect; inconclusive = small, poorly fitted or top-dose-only effect; inactive = no such curve, though single readings can be large or run the other way;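 note: % of control where 0% means no effect; miR-21 action dims this reporter so a rising signal means less miR-21 action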
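Compounds were titrated across several concentrations (up to approximately 40 uM) and incubated 48 hours with HeLa miR-21-FLuc reporter cells (miR-21 target sequence downstream of FLuc, endogenous miR-21). Readout was firefly luciferase luminescence after lytic detection reagent.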
Rango complex inh – inhibitors of Rango-importin beta complex formation | Rango CFP/YFP FRET sensor + importin beta, 45 min | Potency, µM (top dose mostly 92.2 µM), for the others: at the highest dose inhibition of complex formation | 0.031% of 340,000 active; active = rising FRET ratio curve, often small or poorly fitted; inconclusive = mostly compound fluorescence or quenching in the first reads; inactive = flat curves in all reads;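 note: potency is the fitted concentration of half-maximal effect; 0% = DMSO wells and 100% = buffer wells lacking importin beta; nearly all actives have a fitted effect of over 15% in size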
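Inhibition scored from the CFP 486 nm/YFP 530 nm FRET ratio 45 min after adding 0.125 microM importin beta to 50 nM Rango biosensor preincubated 5 min with compound (room temperature, PBS with DTT, Tween-20, BSA). No-importin wells as positive control.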
GLA inh pH 4.5 – inhibitors of human alpha-galactosidase A at pH 4.5; activity change, negative = inhibition, % at 105 µM; P06280; purified enzyme, 4-MU-alpha-Gal fluorescence, pH 4.5; AID 1467; 230,000 tested, under 10 active; inconclusive = small, poorly fitted or top-dose-only inhibition, or a rising curve; inactive = flat fitted curve, though single readings scatter; no compound was filed as active;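 note: 0% = full activity with enzyme and -100% = basal without enzyme; dose as in the result columns while the protocol names 77 µM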
Target sequence (P06280 whole entry, looked up): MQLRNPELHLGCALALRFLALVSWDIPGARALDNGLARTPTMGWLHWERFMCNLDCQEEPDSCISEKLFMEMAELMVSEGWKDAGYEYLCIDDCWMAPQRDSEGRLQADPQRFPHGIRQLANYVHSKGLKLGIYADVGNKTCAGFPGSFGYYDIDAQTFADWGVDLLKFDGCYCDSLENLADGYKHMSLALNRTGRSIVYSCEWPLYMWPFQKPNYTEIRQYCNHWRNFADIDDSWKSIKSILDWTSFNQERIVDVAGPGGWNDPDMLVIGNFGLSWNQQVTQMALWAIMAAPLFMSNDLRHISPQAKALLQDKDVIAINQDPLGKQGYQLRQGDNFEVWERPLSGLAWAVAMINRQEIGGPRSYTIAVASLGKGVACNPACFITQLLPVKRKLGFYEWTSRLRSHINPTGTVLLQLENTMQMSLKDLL
Rango release inh – prevents RanGTP from dissociating the Rango-importin beta complex | Biochemical FRET Rango-importin beta, RanGTP-induced dissociation | Potency, µM (doses to about 46.1 µM), for the others: at the highest dose activity change, negative = inhibition | 0.071% of 340,000 active | AID 540253; active means falling FRET ratio curve, often poorly fitted, with flat reads before Ran was added; inconclusive means other falling curves, or compound fluorescence or quenching; inactive means flat or rising ratio curve;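 note: potency is the fitted concentration of half-maximal effect; % of control where 0% means no effect; nearly all actives have a fitted effect of over 45% in size; -100% = wells without RanGTP and RCC1; the record marks most hits as doubtful in a second field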
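Compounds preincubate 5 min with complex of recombinant Rango and importin beta in PBS with 1 mM DTT. Ran (0.6 uM) loaded with 2 mM GTP plus 0.2 uM RCC1 starts dissociation; FRET is recorded 45 min later.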
* hit, by the source's call; ? = inconclusive; · = not tested or not shown; & = joins results of further samples. Some of the compounds tested; the hit share may differ from the screen's.

SMILES	miR-21 FLuc	Rango complex inh	GLA inh pH 4.5	Rango release inh
O=P(c1ccccc1)(c1ccccc1)C(O)c1ccccn1 (centres undefined)	12%	2.0%	1	5%
O=C(Nc1ccc(N2CCN(C(=O)c3ccco3)CC2)cc1)c1ccc([N+](=O)[O-])cc1Cl	-1%	5.1%	·	-3%
CC(=O)Nc1ccc(NC(=O)CN(c2ccc(C34CC5CC(CC(C5)C3)C4)cc2)S(C)(=O)=O)cc1	-11%	2.9%	-3	1%
Nc1nc(NCc2ccco2)nc(Nc2cccc(F)c2)c1[N+](=O)[O-]	-7%	-1.3%	-1	-16%
CCOC(=O)C1(Cc2cccc(OC)c2)CCCN(C(=O)c2cc(CC(C)C)[nH]n2)C1 (centres undefined)	-51%	-0.4%	·	-4%
Cn1c(NC(=O)c2ccccc2NC(=O)C(C)(C)C)nc2ccccc21	11%	-3.4%	4	-2%
O=C(CCn1c(=O)oc2ccccc21)Nc1ccccc1	-12%	0.4%	2	15%
CCOC(=O)/C(C#N)=C/c1c(N2CCCCCC2)nc2ccccn2c1=O	-6%	-4.0%	·	8%
COC(=O)c1ccc(-n2nnnc2SCc2nn[nH]n2)cc1	0%	1.8%	3	-2%
COc1cccc(CN2CC(C(=O)NCCC3=CCCCC3)CCC2=O)c1 (centres undefined)	-1%	-0.3%	·	-13%
C/C(=N\NC(=O)Cc1ccccc1[N+](=O)[O-])c1cccnc1	-6%	-4.8%	·	0%
COc1cccc(NC(=O)COC(=O)CNC(=O)C2CCCCC2)c1	·	0.5%	·	?
COc1ccc(Nc2c(-c3ccco3)nc3ccc(C)cn23)cc1	-29%	3.8%	-8	2%
CCOC(=O)Nc1ccc2c(c1)N(C(=O)CN1CCN(C)CC1)c1ccccc1S2	-10%	0.1%	-1	0%
C[C@@H]1O[C@@H](OCCC(=O)O)[C@H](O)C[C@H]1O	·	0.3%	·	5%
COCCn1c(=N)c(C(=O)NCCc2ccccc2)cc2c(=O)n3cccc(C)c3nc21	·	?	·	?
Cc1nnc(SCC(=O)N2N=C(c3ccc(Cl)cc3)CC2c2ccco2)[nH]c1=O (centres undefined)	-35%	?	5	6%
Cc1cc(C(F)(F)F)n2nc(-c3cccs3)cc2n1	-13%	-0.1%	-5	12%
Cc1cc(=O)[nH]c(SCC(=O)NCc2ccc3c(c2)OCO3)n1	6%	5.8%	·	-12%
N#CC1=C(N)Oc2c(ccc3cccnc23)C1c1ccccc1 (centres undefined)	27%	?	-7	-7%
C=CCSc1nncn1/N=C/c1ccc(OC)cc1	-61%	-0.7%	3	6%
Cc1cccc(N(Cc2ccccc2)C(=O)c2cc(S(=O)(=O)N3CCOCC3)ccc2F)c1	·	-1.1%	·	-15%
Nc1ccc(CC2SC(=O)NC2=O)cc1 (centres undefined)	-4%	4.8%	-11	11%
Cc1cc(OCCCn2ccnc2)ccc1C(C)C	-9%	3.8%	3	-2%
COc1ccccc1C(=O)Nc1ccnn1C1CCN(Cc2cn(C)c3ccccc23)CC1	30%	1.0%	·	5%
CCn1cc(S(=O)(=O)c2ccccc2)c(=O)c2cc(F)c(N3CCN(C)CC3)cc21	-1%	-2.5%	·	-1%
O=C(Nc1cccnc1)c1cc(Br)c(Br)s1	·	-1.2%	·	-16%
O=C(O)CC/C(=N\Nc1ccc([N+](=O)[O-])cc1S(=O)(=O)N1CCOCC1)c1cccs1	-8%	?	-4	?
CCCCOC(=O)c1ccc(N=Nc2c(C)c(C#N)c(O)[nH]c2=O)cc1	-21%	?	-10	-25%
Cc1[nH]nc(N=CC2=C(O)CC(C)(C)CC2=O)c1-c1ccccc1	-19%	-1.5%&2.8%	-7	1%&4%
Cc1occc1-c1nnc(SCC(=O)Nc2ccccc2)n1C(C)c1ccccc1 (centres undefined)	8%	4.9%	-1	-13%
Cc1cc(C)cc(N2CCCn3c2nc2c3c(=O)[nH]c(=O)n2C)c1	3%	0.6%	·	-1%
O=C(CSc1nc2ccccc2s1)NCCCN1CCOCC1	-6%	2.1%	6	-2%
Cc1[nH]c(C)c(S(=O)(=O)NCC(C)c2ccccc2)c1C(=O)N1CCCCC1 (centres undefined)	0%	2.4%	·	28%
O=C(NCCC1CC1(Cl)Cl)c1ccc([N+](=O)[O-])cc1 (centres undefined)	-30%	0.6%	·	-2%
O=C1NC(=O)/C(=C\c2ccc(OCc3cccc(C(=O)O)c3)c(Cl)c2)N1	-47%	0.5%	-1	4%
COc1ccccc1Nc1nnc(SCc2nnc(-c3cc(OC)c(OC)c(OC)c3)o2)s1	3%	-1.5%	-6	12%
CCc1cccc2c1Sc1ccccc1CC2N1CCNCC1 (centres undefined)	·	-0.1%	·	22%
CCOC(=O)Cn1cnc(C)c1	·	-0.1%	·	-3%
CCOc1ccc2[nH]c3nc(SCC(=O)NC4CC4)nnc3c2c1	-1%	-0.2%	·	-3%

A portion from further up, as a working copy:
SMILES	miR-21 FLuc	Rango complex inh	GLA inh pH 4.5	Rango release inh
O=C(O)CC/C(=N\Nc1ccc([N+](=O)[O-])cc1S(=O)(=O)N1CCOCC1)c1cccs1	-8%	?	-4	?
CCCCOC(=O)c1ccc(N=Nc2c(C)c(C#N)c(O)[nH]c2=O)cc1	-21%	?	-10	-25%
Cc1[nH]nc(N=CC2=C(O)CC(C)(C)CC2=O)c1-c1ccccc1	-19%	-1.5%&2.8%	-7	1%&4%
Cc1occc1-c1nnc(SCC(=O)Nc2ccccc2)n1C(C)c1ccccc1 (centres undefined)	8%	4.9%	-1	-13%
Cc1cc(C)cc(N2CCCn3c2nc2c3c(=O)[nH]c(=O)n2C)c1	3%	0.6%	·	-1%
O=C(CSc1nc2ccccc2s1)NCCCN1CCOCC1	-6%	2.1%	6	-2%
Cc1[nH]c(C)c(S(=O)(=O)NCC(C)c2ccccc2)c1C(=O)N1CCCCC1 (centres undefined)	0%	2.4%	·	28%
O=C(NCCC1CC1(Cl)Cl)c1ccc([N+](=O)[O-])cc1 (centres undefined)	-30%	0.6%	·	-2%
O=C1NC(=O)/C(=C\c2ccc(OCc3cccc(C(=O)O)c3)c(Cl)c2)N1	-47%	0.5%	-1	4%
COc1ccccc1Nc1nnc(SCc2nnc(-c3cc(OC)c(OC)c(OC)c3)o2)s1	3%	-1.5%	-6	12%
CCc1cccc2c1Sc1ccccc1CC2N1CCNCC1 (centres undefined)	·	-0.1%	·	22%
CCOC(=O)Cn1cnc(C)c1	·	-0.1%	·	-3%
CCOc1ccc2[nH]c3nc(SCC(=O)NC4CC4)nnc3c2c1	-1%	-0.2%	·	-3%

Going on with the list:
SMILES	miR-21 FLuc	Rango complex inh	GLA inh pH 4.5	Rango release inh
COc1ccc(CCNC(=O)c2ccccc2-c2ccccc2C(=O)O)cc1OC	2%	0.5%	·	33%
CCOC(=O)C1CCN(c2c(NCc3ccc(C(=O)NCCC(C)C)cc3)c(=O)c2=O)CC1	-2%	2.4%	1	0%
Cc1ccc(C(=O)N2c3ccccc3CC2C)o1 (centres undefined)	-56%	-0.1%	-7	18%
Cc1cc(C)nc(NC(=O)c2ccc(C)c([N+](=O)[O-])c2)n1	0%	2.0%	-1	3%
CCC1CCCCN1Cc1nc2ccccc2c(=O)n1CC(C)=O (centres undefined)	-15%	-3.9%	-2	-22%
Cc1ccc(-c2nnn(CC(=O)NC3CCN(Cc4ccccc4)CC3)n2)cc1	-8%	0.3%	6	-11%
CCOC(=O)C1(Cc2ccccc2C(F)(F)F)CCN(CC(O)CO)CC1 (centres undefined)	-5%	-2.7%	-4	-1%
COc1cccc(N2CCN(C(=O)c3ccc(Cl)c(NC4=NC5CS(=O)(=O)CC5S4)c3)CC2)c1 (centres undefined)	0%	2.0%	·	-8%
COc1ccc(CC(=O)Nc2ccc(C(=O)NC(C)(C)C)cc2)cc1OC	0%	2.6%	-4	4%
CCCC/C(C)=N/NC(=O)c1cn(-c2ccccc2)nc1-c1ccccc1	-7%	4.4%	10	-4%
CCN1C(=O)[C@H]2[C@@H](c3ccc(-c4ccc(OC)cc4)c(OC)c3)N3CCCC[C@@]3(C(=O)OC)[C@H]2C1=O	·	-3.7%	·	-10%
CCOP(=O)(OCC)/C(=C/N1CCCCC1)NC(=O)c1ccccc1	-4%	1.3%	9	?
COc1ccc(-c2cc(C(=O)NCCCN3CCOCC3)c3cc(C(C)C)ccc3n2)cc1	-1%	1.0%	·	0%
C[C@@H](C(=O)Nc1ccc(SC(F)F)cc1)N1C(=O)C2CCCCC2C1=O (some centres undefined)	·	-0.2%	·	10%
CCC1CN(S(=O)(=O)c2ccc3c(c2)NC(=O)CC(=O)N3)c2cc(Cl)ccc2O1 (centres undefined)	13%&14%	2.3%	·	-18%
Cc1nn(-c2cccc(Cl)c2)c2nc(C(F)(F)F)[nH]c(=O)c12	-4%	-0.4%	2	-5%
S=c1[nH]nc(CN2CCCCC2)n1Cc1ccccc1	-1%	-0.2%	14	22%
CCC(C)NC(=O)C(Cc1ccccc1)NS(=O)(=O)c1ccc2c(c1)oc(=O)n2C (centres undefined)	0%	-0.8%	·	22%
C=CCNS(=O)(=O)c1ccc2nsnc2c1	-6%	?	-2	?
COc1ccc(OC)c(C2N(c3ccc(Cl)cc3)C(=O)C3CCCN32)c1 (centres undefined)	-7%	-1.3%	-1	-3%

Quoted from the listing.
`CCC1CN(S(=O)(=O)c2ccc3c(c2)NC(=O)CC(=O)N3)c2cc(Cl)ccc2O1` (centres undefined) – miR-21 FLuc = 13%&14%
`CCN1C(=O)[C@H]2[C@@H](c3ccc(-c4ccc(OC)cc4)c(OC)c3)N3CCCC[C@@]3(C(=O)OC)[C@H]2C1=O` – Rango complex inh = -3.7%

Continuation:
SMILES	miR-21 FLuc	Rango complex inh	GLA inh pH 4.5	Rango release inh
O=C(Nc1ccc2nc3n(c(=O)c2c1)CCCC3)c1ccc(Cl)nc1	·	1.5%	·	?
CCOC(=O)C1C(c2cccs2)NC(=O)N(C)C1(O)C(F)(F)F (centres undefined)	-11%	-1.3%	7	13%
CCN(c1ccc(OC)cc1)S(=O)(=O)c1ccc(-c2cc(C)no2)s1	22%	-1.9%	·	-9%
O=C(CN(CCc1ccccc1)C(=O)Cn1nnc(-c2cccs2)n1)NCc1ccco1	1%	?	0	16%
O=C(Nc1ccc(Cl)cc1)Nc1ccc2c(c1)OCO2	-51%	2.1%	·	4%
CCC1SC2=NC(C)=C(C(=O)OCCOC)C(/C=C/c3ccccc3OC)N2C1=O (centres undefined)	-12%	2.7%	?	7%
Cc1ccc(-n2ncc3c(=O)n(CC(=O)N4CCCc5ccccc54)cnc32)cc1C	21%	-0.1%	-3	65%
Nn1c(SCC(=O)Nc2cc(C(F)(F)F)ccc2Cl)nncc1=O	14%	0.6%	·	-1%
C=CCN(C(=O)c1csnn1)C(C(=O)NC(C)(C)C)c1ccncc1 (centres undefined)	3%	-1.0%	9	-4%
CCOCc1cnc(C)nc1NCC(=O)c1c(C)[nH]c2cc(C)ccc12	24%	2.4%	-5	-4%
COCCOC(=O)C1=C(C)NC(SCC(=O)NC(C)(C)C)=C(C#N)C1c1ccco1 (centres undefined)	7%	-0.4%	-12	26%
Cc1ccc(CSc2ccc(-c3ccco3)nn2)cc1	-74%	4.4%	11	1%
Cc1ccc(/C(=N\O)c2oc3c(C)c4oc(=O)cc(C)c4cc3c2C)cc1	-20%	0.7%	3	0%
O=C(Cn1c(-c2cscn2)nc2ccccc21)Nc1ccc(Cl)cc1	1%	3.5%	6	21%
O=C(NC(=S)Nc1ccccc1N1CCCCC1)c1ccco1	-5%	0.6%	-2	28%
Cc1ccc2cc(CN(CCCO)S(=O)(=O)c3cccc4nsnc34)c(=O)[nH]c2c1C	-14%	-4.7%	4	-3%
Cc1cc(NC(=O)/C=C/C(=O)N(c2ccccc2C)C(C(=O)NC2CCCC2)c2ccc(F)cc2)no1 (centres undefined)	-4%	-1.9%	5	-5%
CCOc1cc(NC(=O)C2CCCCC2)c(OCC)cc1NC(=O)c1ccco1	-2%	2.1%	?	2%
O=C(NCCNS(=O)(=O)c1ccc(C(F)(F)F)cc1)N1CCOCC1	1%	-3.3%	0	2%
CC(=O)Nc1ccc(N(C(=O)c2ccco2)C(C(=O)NC2CCCC2)c2ccc(N3CCOCC3)cc2)cc1 (centres undefined)	0%	1.3%	9	5%
COc1ccc(C(=O)NCC2CCCN2S(=O)(=O)c2cccs2)cc1OC (centres undefined)	·	-0.3%	·	9%
CSc1ncc(CN2CCCCC2C(=O)Nc2ccc(Oc3ccccc3)nc2)cn1 (centres undefined)	2%	-2.0%	·	0%

Screening results (PubChem)
